Assay outcomes from PubChem BioAssay.
LT uptake inh: qHTS Assay for Anthrax Lethal Toxin Internalization; Cells, anthrax lethal toxin internalization, FRET ratio (460/530); Potency, µM (doses to about 40 µM), inactives show at the highest dose activity change, negative = inhibition, most hits filed as inhibitors; hit rate 0.67% among 70,000; active = well fitted falling ratio curve with the 530 nm signal flat; inconclusive = other ratio curves, or a change in one channel alone; inactive = flat curves in the ratio and both channels; the % refers to the ratio; also: % is scaled to controls: 0 for no effect and ±100 for the full control effect; nearly all actives have a fitted effect of over 50% in size; tested in ME-180 cells; beta-lactamase reporter
Prx2 Sm inh: Schistosoma Mansoni Peroxiredoxins (Prx2) | Schistosoma mansoni peroxiredoxin 2 (Prx2) | S. mansoni Prx2 activity coupled to TGR/GSH (TGR is thioredoxin glutathione reductase), NADPH fluorescence loss, qHTS; some inactives read as strong as hits | Potency, µM | hit rate 0.07% among 65,000 | AID 448, 2006; active means full or partial inhibition curve with a strong effect at the top dose; inconclusive means weaker partial or single-point curve; inactive means no accepted curve; also: series up to 57 µM; many of its hits are not listed in these tables
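Enzyme mix: 100 uM NADPH, 25 nM TGR, 700 uM GSH, 50 nM Prx2 in 100 mM phosphate pH 7.4, 10 mM EDTA, 0.01% Tween-20. 15 min RT with compound; NADPH/GSH added, H2O2 starts reaction; NADPH fluorescence read 8 min.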
* marks the source's active call; other numbers are inactive results; ? = inconclusive; · = no result given; [ ] = dose if it differs, or a comment. Potency is read from the fitted curve at half-maximal effect. The list is partial. The share of hits here may be higher or lower than overall.

SMILES	LT uptake inh	Prx2 Sm inh
CCOC(=O)N1CCC(NC(=O)c2ccc(CS(=O)(=O)c3ccccc3C)o2)CC1	-3.5%	>57
CC1(C)CCC(NC(=O)[C@H](N)CCC(=O)O)CC1	4.5%	>57
CCOc1ccccc1NC(=O)CCN1CCN(S(=O)(=O)c2ccc(OC)cc2)CC1	3.3%	>57
CCOC(=O)Cn1nnnc1C(CC)N(Cc1cc2ccc(C)cc2[nH]c1=O)C1CCCC1 (stereo not given)	6.4%	>57
Cc1nc(C)c(C(=O)Nc2ccccc2-c2ccccc2)o1	7.5%	>57
COc1ccc(OC)c(-c2nnc(-c3ccc(C)o3)o2)c1	-11.3%	>57
Cc1ccc2cc(CCNC(=O)CC(C)(C)C)c(=O)[nH]c2c1C	9.7%	>57
O=C(Cn1c(=O)oc2cc(S(=O)(=O)N3CCCC3)ccc21)NCc1ccccn1	-4.4%	>57
COc1cccc(-n2c(Cc3cc(=O)[nH]c(=O)[nH]3)nnc2SCC(=O)NC2CCCCC2)c1	0.9%	>57
CCOC(=O)CSc1nnc(-c2ccco2)n1-c1ccccc1	-12.5%	>57
O=C(CSc1nnc(-c2ccc(Br)o2)n1Cc1ccccc1)c1ccccc1F	-4.3%	>57
CN1CCN(Cc2nc3c(c(=O)[nH]c(=O)n3C)n2CCc2ccccc2)CC1	6.9%	>57
COCCn1c(=O)[nH]c2cc(C(=O)NCc3cccnc3)ccc2c1=O	0.1%	>57
O=C(CSc1ccccc1)NCCCN1CCOCC1	-12.1%	>57
CCn1cc(S(=O)(=O)CC(=O)Nc2cc(C)on2)c2ccccc21	-2.8%	>57
Cn1c(CCNC(=O)c2ccccc2)nc2cc(NC(=O)c3ccco3)ccc21	-5.4%	>57
Cc1ccc(NC(=O)CSC(N)=O)cc1Cl	14.8%	>57
Cc1ccc(CCNC(=O)Cn2cccc2)cc1	-0.2%	>57
CC(C)COC(=O)C1[C@H]2C(=O)N(Cc3cccs3)C[C@]23C=C[C@H]1O3 (stereo not given in full)	·	>57
COc1ccc2[nH]cc(CCNc3ncnc4ccc(-c5ccccc5C#N)cc34)c2c1	?	>57

Two of the compounds above, with two lines to a compound.
The line under a structure holds: LT uptake inh, Prx2 Sm inh
> Cn1c(CCNC(=O)c2ccccc2)nc2cc(NC(=O)c3ccco3)ccc21
    -5.4%, >57
> CCn1cc(S(=O)(=O)CC(=O)Nc2cc(C)on2)c2ccccc21
    -2.8%, >57

Next section.
SMILES	LT uptake inh	Prx2 Sm inh
O=C(CC1=NC2(CCCC2)Cc2ccccc21)N1CCOCC1	·	>57
COCCn1c(SCC(=O)N2CCCCC2)nc2cccnc21	?	>57
CCOc1ccc(OCC)c(NC(=O)CCn2c(=O)oc3ccccc32)c1	1.3%	>57
COc1cccc(Cn2c(=O)cnc3cncnc32)c1	?	>57
Cc1cc(N2CCOCC2)nc2ccc(NC(=O)CCC(=O)N3CCCC(C)C3)cc12 (stereo not given)	23.6%	>57
CCc1cccc(CC)c1NC(=O)CN1CCN(c2ccccc2)CC1	6.6%	>57
COc1ccc2[nH]cc(CCNc3ncnc4ccc(-c5ccccc5CN(C)C)cc34)c2c1	-27.3%	>57
COc1ccc(-c2nc(=S)[nH][nH]2)cc1	-10.4%	>57
CCC(c1nnc(SCC(=O)N2CC(=O)Nc3ccccc32)n1Cc1ccccc1)N(C)C (stereo not given)	-3.9%	>57
COC(=O)c1ccc2c(=O)n(CCN3CCOCC3)c(SCC(=O)c3ccccc3)nc2c1	-9.9%	>57
CC(C)c1nnc(NC(=O)C2CCCCC2)s1	-4.0%	>57
COc1cccc(C(=O)CN2C(=O)C(C)(C)Oc3ccc(C(=O)N4CCCCCC4)cc32)c1	-8.1%	>57
Clc1ccccc1OCc1nc(-c2ccccn2)no1	9.5%	>57
C[N+](C)(C)CC(=O)N/N=C\c1ccncc1	-4.0%[8 µM]	>57
C#CCNc1c(C)c(C)nc2ncnn12	7.5%	>57
CCC(=O)N1c2ccc(S(=O)(=O)N(CCO)Cc3ccccc3)cc2CC1C (stereo not given)	6.3%	·
COc1ccc(C(c2sc3nc(C)nn3c2O)N2CC(C)OC(C)C2)cc1OC (stereo not given)	-7.8%	>57
CC1(C)C(=O)Nc2ccccc2N1C(=O)COc1ccc(S(=O)(=O)N2CCOCC2)cc1Cl	10.5%	>57
COc1ccc(Nc2ccccc2)c(C)c1	-8.7%	>57
O=c1oc2c3c4c(cc2c2c1CCC2)OCCN4CCC3	?	>57
COc1ccc(CN2CCN(C(=O)C3CC(=O)N(C4CCCCCC4)C3)CC2)c(OC)c1OC (stereo not given)	1.6%	>57
CC1CCc2sc3nc(NCc4ccco4)n4ncnc4c3c2C1 (stereo not given)	?	>57
CN(C)P(=NC(=S)c1cccn1C)(N(C)C)N(C)C	?	>57
CC(C)NC(=O)N1CCCC2(CCN(C(=O)c3cc(C(F)(F)F)cc(C(F)(F)F)c3)CC2)C1	5.7%	>57
N#Cc1ccc(CSc2nnc(Nc3ccccc3)s2)cc1	0.7%	>57
Clc1cccc(Cl)c1Cn1nnc(-c2cccs2)n1	-5.7%	>57
COC(=O)c1cc2c(=O)n3ccccc3nc2n(C)c1=N	?	>57
c1ccc(-n2c(SCc3ccncc3)nnc2-c2ccco2)cc1	?	>57
O=C(O)CNC(=O)c1ccccc1O	?	>57
CCOC(=O)N1CCC(NC(=O)c2cccc3c2C(=O)N(Cc2cccnc2)C3)CC1	-13.1%	>57
CC1(C)CC(=O)N(CC(=O)N2CCN(c3ncccn3)CC2)c2ccccc2S1(=O)=O	5.4%	>57
Cc1cccc(C)c1OCc1nnc(SCC(=O)NCc2ccccc2)o1	-5.2%	>57
CC1=CC(=O)CC(C)(C)[C@]1(O)/C=C\C(C)=C\C(=O)O	-2.5%[8 µM]	>57
COc1ccc2oc(=O)c(C(=O)N3CCCc4ccccc43)cc2c1	12.0%	>57
COC(=O)C(CCCCN1C(=O)C2C3C=CC(C3)C2C1=O)N1C(=O)C2C3C=CC(C3)C2C1=O (stereo not given)	-2.2%	>57
N#Cc1nc(Cc2cccc3ccccc23)oc1N1CCOCC1	·	>57
Cc1cnc(CNc2ncncc2-c2ccc(C(=O)N(C)C)cc2)cn1	-0.1%	>57
C[C@@H](C(=O)N[C@@H](CO)Cc1ccccc1)[C@@H]1C[C@@]1(C)[C@@H](NC(=O)OCc1ccccc1)c1ccccc1	-15.1%	>57
Cc1cc(C(=O)CSc2nnc(-c3ccncc3)n2-c2ccccc2)c(C)n1C	-3.6%	>57
O=C(CSc1nnc(-c2ccc(OC(F)F)cc2)o1)N1CCOCC1	3.6%	>57
CCOc1ccc(-c2cc3nc(C4CCN(C(=O)OC(C)(C)C)CC4)c(C(=O)O)cn3n2)cc1	?	>57
Cc1cccnc1Nc1nc(-c2ccc(O)cc2O)cs1	-28.2%	>57
CSc1ccccc1NC(=O)c1cnccn1	-12.7%	>57
Nn1c(Nc2ccccc2)nc2sc3c(c2c1=O)CCC3	?	·
CCn1ncc(Br)c1C(=O)Nc1cc(C(=O)OC)ccc1C(=O)OC	-9.2%	>57
O=C(O)C1CCCCC1C(=O)NCCCN1CCOCC1 (stereo not given)	6.2%	>57
O=S(=O)(c1ccc2c(c1)OCCO2)N1CCN(Cc2ccc3c(c2)OCO3)CC1	-19.2%	>57
CN(C)CCSc1nnc(-c2ccccc2)o1	2.8%	>57
Cc1cc(C)cc(N2C(=O)CC(N3CCOCC3)C2=O)c1 (stereo not given)	-2.1%	·
Cn1c(NC(=O)c2ccco2)c(-c2ccccc2)c(=O)c2ccccc21	-30.3%	>57
(further entries)
SMILES	LT uptake inh	Prx2 Sm inh
CCOC(=O)c1c(-c2ccccc2)csc1NC(=O)c1nn(CC)cc1Br	?	·
Cc1cccc(-n2nnnc2SCC(=O)c2cc(C)n(Cc3ccco3)c2C)c1	?	>57
COc1ccc(C)cc1NC(=O)CN(Cc1nnc(-c2ccc(Cl)cc2)o1)C1CCCC1	?	>57
Cc1ccc(C)c(C2=CSC3=NCCN23)c1	10.7%	>57
CCc1nnc(NC(=O)OCc2ccccc2)s1	4.9%	>57
CCOC(=O)c1sc(NC(=O)c2ccco2)nc1C	-7.5%	>57
O=C(Oc1ccc2cccc(OC(=O)N3CCOCC3)c2c1)N1CCOCC1	-7.6%	>57
Cc1c(O)c(=O)ccn1Cc1ccccc1	-7.4%[8 µM]	·
CCOC(=O)c1c(NC(=O)CN2CCOCC2)sc2c1CCCC2	-2.3%	>57
CCN(CC)CCCNC(=O)c1ccccc1C	-7.7%	·

Fetched by compound from the entries so far (3):
SMILES	LT uptake inh	Prx2 Sm inh
Cc1cccnc1Nc1nc(-c2ccc(O)cc2O)cs1	-28.2%	>57
O=C(O)C1CCCCC1C(=O)NCCCN1CCOCC1 (stereo not given)	6.2%	>57
COc1cccc(Cn2c(=O)cnc3cncnc32)c1	?	>57

New compounds follow
SMILES	LT uptake inh	Prx2 Sm inh
CCOC(=O)N1CCC(N(CCCOC)C(=O)Nc2ccc(CC)cc2)CC1	-4.8%	>57
Cc1ccc(CNC(=O)c2oc3ccc(S(=O)(=O)N4CCC5(CC4)OCCO5)cc3c2C)cc1	?	>57
Cc1c(CN2CCCCC2C)c(=O)n(-c2ccccc2)n1C (stereo not given)	-1.8%	>57
CCCNS(=O)(=O)c1ccc(CCC(=O)N2CCOCC2)cc1	-2.2%	>57
CCOC(=O)c1cnc(SCC(=O)Nc2ccccc2N2CCOCC2)nc1N	?	>57
CC(NC(=O)c1cccs1)C(c1cccs1)N1CCOCC1 (stereo not given)	-6.6%	>57
O=C(O)CCCCCN1C(=O)CSC1=S	?	>57
O=C(NCc1ccccc1)C1CC2CCCC(C1)C2=O (stereo not given)	-22.9%	>57
CCCC(CCC(=O)NC1CCCCC1)C(=O)O (stereo not given)	?	>57
CNC(=O)[C@H]1C[C@@H]1[C@H](NP(=O)(c1ccccc1)c1ccccc1)c1ccccc1	1.4%	>57
Cc1cc(C)nc(N(C#N)Cc2ccc(Br)cc2)n1	-9.8%	>57
Cc1cc(=O)[nH]c(SCC2COC3(CCCCC3)O2)n1 (stereo not given)	11.2%	·
Cc1ccc(C(=O)Nc2nccs2)cc1S(=O)(=O)N1CCCCC1	-14.2%	>57
CCOC(=O)Nc1ccc(S(=O)(=O)Nn2cnnc2)cc1	-12.2%	·
CN(CCCC(=O)NCc1ccco1)S(=O)(=O)c1ccccc1	-19.2%	>57
CCN(CC)C(=O)CSc1nnc(-c2ccccc2)n1N	-6.9%	>57
O=C1CSC(c2nn(-c3ccccc3)cc2-c2cc3ccccc3oc2=O)N1Cc1ccco1 (stereo not given)	-16.3%	>57
O=C1C2CCCN2C(c2ccc(Cl)cc2)N1c1nccs1 (stereo not given)	-11.2%	>57
CCOC(=O)C1(O)CSc2nc3sc(C(=O)O)c(C)c3c(=O)n21 (stereo not given)	-0.7%	>57
COc1c(C(=O)N2CCCC2)ccc2ccccc12	7.6%	>57
CCc1cc(C(=O)OC)c(NC(=O)c2cc(Br)cs2)s1	1.1%	>57
c1ccc(C(c2ccccc2)N2CC[C@@]3(CCCNC3)C2)cc1	?	>57
COCc1cc(C)nc(Nc2ccccc2C)c1C#N	3.5%	>57
ClCc1ccccn1	?	·
CSc1ccc(C=O)cc1	-3.2%	·
O=C(CCCNS(=O)(=O)c1cccc2nsnc12)NC1CCCCC1	6.6%	>57
CCCC/C=C/C(NC(=O)Oc1cccc(C(F)(F)F)c1)c1ccccc1 (stereo not given)	?	>57
CCCC(=O)N(c1ccc2oc(=O)sc2c1)S(=O)(=O)c1ccccc1	?	>57
CCn1c(=N)n(CCO)c2ccccc21	-4.6%	>57
O=C(NCc1ccc2c(c1)OCO2)C1CCCN(S(=O)(=O)c2cccnc2)C1 (stereo not given)	-10.5%	>57

As a short view, four of the compounds above.
SMILES	LT uptake inh	Prx2 Sm inh
CCc1cc(C(=O)OC)c(NC(=O)c2cc(Br)cs2)s1	1.1%	>57
c1ccc(C(c2ccccc2)N2CC[C@@]3(CCCNC3)C2)cc1	?	>57
COCc1cc(C)nc(Nc2ccccc2C)c1C#N	3.5%	>57
ClCc1ccccn1	?	·

(listing goes on)
SMILES	LT uptake inh	Prx2 Sm inh
C/C(N)=C(/C#N)C(=O)CSc1ccc2c(c1)OCCO2	9.7%	>57
COc1ccc2nc3sc(C(=O)N4CCN(C)CC4)cc3cc2c1	1.9%	>57
CC(O)c1ccc2c(c1)OCCOCCN(C)CCOCCO2 (stereo not given)	?	>57
CCCS(=O)(=O)N1CCCC(C(=O)NC(C)c2ccc3c(c2)OCCO3)C1 (stereo not given)	18.5%	>57
CN(c1ccccc1)S(=O)(=O)c1ccc(C(=O)OCC(=O)N2CCOCC2)cc1	2.4%	>57
O=C(NCc1ccc2c(c1)OCO2)c1ccc(CS(=O)(=O)c2ccc(Br)cc2)o1	?	>57
O=C1N(Cc2ccc3c(c2)OCO3)c2ccccc2C1(O)c1c[nH]c2ccccc12 (stereo not given)	·	>57
Cc1c(-c2nc(N)nc(Nc3ccc(F)cc3)n2)oc2ccccc12	?	>57
O=C(NCCCN1CCOCC1)C1CC(=O)N(CCc2ccccc2)C1 (stereo not given)	-4.8%	>57
Cc1ccc(NC(=O)C2CCCN(S(=O)(=O)c3cnc[nH]3)C2)cc1F (stereo not given)	-4.3%	>57
Cc1ccc(OCc2nc(-c3ccccn3)no2)c(Br)c1	-19.2%	·
